eIF4H FP inh: inhibitors of RNA binding by human eIF4H | AID 2012 | eIF4H fluorescence polarization binding assay | inhibition, % at 35 µM | 290,000 tested, 0.94% active;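 active = 50% or more with normal probe brightness, or confirmed in later tests; inconclusive = above 50% with abnormal brightness, or retests that disagree; inactive = below 50% or failed in later tests; about a fifth of its hits are not listed in these tables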;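 note: calls also rest on retests at 20 µM and on dose response follow-up; 0% = protein and probe with vehicle and 100% = probe without protein; strong numbers were not always called active; many hits fall short of the cut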
HIV Env fusion: inhibitors of HIV Env-mediated cell fusion; HeLa-JRFL Env/CEM21 cell fusion, luciferase; inhibition, % at 12.3 µM; 360,000 tested, 1.1% active;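 active = mean replicate inhibition score of at least 50 and every replicate individually at or above 50; inconclusive = only one of the two criteria met; inactive = mean below 50 and not all replicates reaching 50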;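 note: 0% = plate neutral controls and 100% = maraviroc near 300 nM; one replicate is shown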
CSC inhib: blocks cancer stem cells. cancer stem cell-like cells viability, luminescence. inhibition, % at 7.5 µM. 300,000 tested, 1.1% active;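 active = mean at 75% or more and at least half the replicates too; inconclusive = mean and replicates disagree; tested in HMLE shEcad cells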;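 note: 0% = median of negative and 100% = median of positive control wells; the first replicate is given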
Rce1 inh: yeast Ras-converting enzyme inhibition; Q03530; calls only; yeast membranes, quenched prenylated peptide cleavage fluorescence; 290,000 tested, 0.27% active;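 active = fall in fluorescence gain of 50% or more versus controls, with final raw signal at or below 3038400; inconclusive = same 50% fall but final raw signal above 3038400; inactive = fall in fluorescence gain under 50%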;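 note: plate controls were neutral control wells for no effect and wells lacking membranes for full effect; tested at 10 µM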
Target sequence (Q03530 whole entry, looked up): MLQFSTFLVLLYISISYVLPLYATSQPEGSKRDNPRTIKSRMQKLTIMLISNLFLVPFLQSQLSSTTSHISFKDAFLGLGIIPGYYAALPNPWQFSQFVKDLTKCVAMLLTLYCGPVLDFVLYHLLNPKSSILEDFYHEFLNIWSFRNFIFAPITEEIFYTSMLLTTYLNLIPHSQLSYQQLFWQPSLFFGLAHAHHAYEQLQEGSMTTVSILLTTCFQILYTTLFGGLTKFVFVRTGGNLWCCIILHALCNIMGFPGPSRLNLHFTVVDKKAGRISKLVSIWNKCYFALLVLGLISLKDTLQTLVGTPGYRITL
UUG fidelity: modulators of start codon recognition fidelity in yeast. 350,000 tested, 0.13% active. activity score, % at 18.7 µM. S. cerevisiae UUG-firefly luciferase reporter, luminescence/redox ratio. AID 602363;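 active = replicate mean at a twofold rise or more, about +100% in these data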;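 note: firefly luciferase made from a UUG start codon reports start codon fidelity; reporter light over untreated wells divided by growth signal over untreated wells; some hits fall short of that in this replicate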
MT1-MMP act inh: inhibitors of human MT1-MMP activation; 360,000 tested, 0.061% active; HT1080 RFP-PRO-GFP cells, GFP/RFP ratio fluorescence, overnight; percent of plate control window, DMSO zero; AID 651647; GFP/RFP ratio change, % at 20 µM;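 active = GFP/RFP ratio change of at least 30% with cell ATP level not reduced by more than half and red fluorescence within 50% of control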; note: strong numbers were not always called active
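Test system: HT1080 RFP-PRO-GFP cells; Benchmarks: DMSO and RFP-L50D-GFP cell wells; Timing: cells overnight before dosing, compound overnight, 37 °C, 5% CO2; Compound: one 20 µM compound dose with 1% DMSO; Read-out: GFP/RFP fluorescence ratio.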
PABP FP inh: PABP-poly(A) binding inhibition; inhibition, % at 35 µM; 290,000 tested, 1% active; P11940; PABP-poly(A) RNA binding, fluorescence polarization; AID 2014;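 active = 50% or more with normal probe brightness, or confirmed in later tests; inconclusive = above 50% with abnormal brightness, or retests that disagree; inactive = below 50% or failed in later tests; about a fifth of its hits are not listed in these tables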;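 note: calls also rest on retests at 20 µM and on dose response follow-up; controls were probe without protein and protein plus probe with vehicle; some compounds called inactive have numbers as strong as hits; many hits fall short of the cut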
eIF4H FP inh retest: also measured in eIF4H FP inh; calls as there; inhibition, %; compound at 20 µM; confirmation average;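 mean of two retest wells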
PABP FP inh retest: further read-out of PABP FP inh, marked with its call; inhibition, %; compound at 20 µM; confirmation repeats;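 mean of two retest wells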
MT1-MMP act inh RFP: recorded beside MT1-MMP act inh, whose call it bears; RFP signal change, %; measured here: RFP expression control read;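 0 = vehicle wells; hits needed this value within 50% of zero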
The depositor's hits bear a star; i = inactive; ? = inconclusive; . = no result given; & = joins results of further samples.

SMILES | eIF4H FP inh | HIV Env fusion | CSC inhib | Rce1 inh | UUG fidelity | MT1-MMP act inh | MT1-MMP act inh RFP | PABP FP inh | others
COc1cc(C)c(S(=O)(=O)N2CCCC2)cc1C | -7 | . | -1 | i | -8 | 3 | 1 | -8
COC(=O)c1cc(CC(=O)c2ccc(O)cc2O)c(C)o1 | 2 | . | 6 | i | 3 | 3 | 0 | -6
O=S(=O)(c1ccc(Cl)cc1)N1CCN(c2ccccn2)CC1 | -4 | -7 | -4 | i | -9 | 1 | 0 | 8
Cc1sc2nc(SCC(=O)N3CC(C)OC(C)C3)n(C)c(=O)c2c1C (stereo not given) | 34 | -2 | 4 | i | -5 | -1 | 1 | 2
O=C(O)CCc1ccc(-c2ccc(F)cc2)n1CC(=O)O | 8 | . | 7 | i | -5 | -5 | 4 | 19
CCCOc1ccc(-c2cnc(N)s2)cc1 | 0 | . | 19 | i | -12 | 4 | -2 | -1
COc1ccc(/C=N/NC(=O)Nc2ccc3nsnc3c2)c(OC)c1 | -6 | -16 | -2 | i | . | 1 | 1 | 6
Fc1ccccc1CNC(=S)Nc1cccc(C(F)(F)F)c1 | -4 | 12 | 18 | i | -22 | 5 | -20 | -13
Cc1cccc(C(=O)NCCc2ccccc2)c1 | -2 | -19 | 7 | i | -18 | 1 | 0 | -9
CC(OC(=O)CN1C(=O)C2C3C=CC(C4CC34)C2C1=O)C(=O)c1ccccc1 (stereo not given) | -5 | -1 | -12 | i | 8 | -1 | 1 | 6
O=C(O)CCCN(Cc1cccc(Br)c1)S(=O)(=O)c1ccc(Br)cc1 | -4 | 14 | . | i | . | 0 | 2 | 10
O=C(NCCc1ccccc1)C(=O)NCc1ccncc1 | 1 | 3 | 1 | i | -12 | 2 | 4 | -1
CC1(C)Cc2ccccc2-c2nc(NCCCO)n(-c3ccccc3)c(=O)c21 | 0 | 28 | -8 | i | 5 | 6 | -1 | -6
OC1(C#CCN2CCCC2)c2ccccc2-c2ccccc21 | -6 | 0 | . | i | . | -3 | -10 | 2
CCn1cc(CN2CCCC(CO)(Cc3cccc(Cl)c3)C2)cn1 (stereo not given) | -1 | -26 | 10 | i | . | -2 | 2 | -15
COc1ccc(C2/C=C\CN(C(=O)C3CCCC3)CC(=O)N2Cc2ccc(F)cc2)cc1 (stereo not given) | -2 | 32 | -6 | i | -7 | 2 | -1 | -7
CC(C)c1ccc(NC(=O)C(c2ccccc2)N2CCN(C=O)CC2)cc1 (stereo not given) | 0 | -120 | -1 | i | -10 | -12 | -6 | -6
Cc1cc(NC(=O)CCN2C(=O)/C(=C\c3ccccc3Cl)SC2=S)no1 | 0 | 23 | 10 | i | . | 1 | 0 | -13
Cc1ncsc1CCSc1nc2ccccc2c(=O)n1C | -6 | . | -2 | i | -12 | 1 | -6 | -5
CCCCOCCCNC(=O)c1cccc(OC)c1 | 3 | 13 | -9 | i | . | 2 | 0 | -1
CC1CCCC(NC(=O)CSc2nnc(-c3cccnc3)o2)C1C (stereo not given) | . | 38 | . | . | 12 | -2 | 2 | .
CC(=O)NC1=NN(C(C)=O)C(C)(c2ccccc2)S1 (stereo not given) | 28 | . | . | i | . | -1 | -9 | -7
O=C(O)c1ccc(N2C(=O)CC(Cc3ccccc3)C2=O)cc1 (stereo not given) | 6 | -23 | -14 | . | -22 | 0 | 4 | 10
Cc1ccc(NC(=O)CSc2ncc(-c3ccccc3)n2C(=O)c2ccccc2)cc1 | 3 | 2 | 15 | i | -26 | 2 | 3 | -3
CC(C)=CCCC1(C)C=Cc2c(ccc3c2[nH]c2cc(O)c(C)cc23)O1 (stereo not given) | 5 | . | 101* | i | 4 | 7 | -2 | 5
Continued.
SMILES | eIF4H FP inh | HIV Env fusion | CSC inhib | Rce1 inh | UUG fidelity | MT1-MMP act inh | MT1-MMP act inh RFP | PABP FP inh | others
CCC1CCCCN1CCCNC(=O)C1CCC(Cn2c(=O)[nH]c3ccccc3c2=O)CC1 (stereo not given) | 3 | -39 | -4 | i | -3 | 1 | 6 | 3
CC(CNc1ccccc1O)C(=O)O (stereo not given) | 100 | -32 | -3 | i | . | 6 | 7 | 5 | eIF4H FP inh retest=21;PABP FP inh retest=36
O=C(CC1C(=O)NCCN1Cc1ccc(-c2ccccc2)cc1)NCCOc1cccnc1 (stereo not given) | 9 | 5 | -3 | i | . | -8 | -8 | 24
COC(=O)c1c(NC(=O)CCNCc2ccco2)sc2c1CCC2 | -4 | 5 | 10 | . | -17 | -1 | -2 | 1
CNc1c([N+](=O)[O-])cnn1-c1ccc(F)cc1 | -10 | -11 | -11 | i | -22 | 1 | 5 | 3
C=CCN1C(=O)[C@]2(c3ccccc31)C1CCCC=C1C(C#N)=C(N)C2(C#N)C#N (stereo not given in full) | 13 | -23 | -5 | i | -9 | -21 | -1 | -4
CCC(=O)N1CCc2cc(S(=O)(=O)CCC(=O)Nc3cccc(C)n3)ccc21 | 16 | -2 | -10 | i | . | -5 | -3 | -1
Cc1nnc(SCC(=O)NNC(=O)c2ccc(Br)cc2)n1C | -3 | -10 | 11 | i | . | 1 | -1 | -2
N=C(N)SCc1nc2ccccc2c(=O)n1-c1ccccc1 | -4&10 | -39&-27 | -9&3 | i | . | -12&-47 | 1&2 | -1&12
CCCCC(C(=O)O)C(C)CC(=O)Nc1nncs1 (stereo not given) | -9 | 6 | -20 | i | -21 | 3 | 3 | -5
Cc1cc(C)c(OCC(=O)Nc2ccc(N3CCOCC3)cc2)c(Br)c1 | -8 | 1 | 1 | . | -1 | 2 | 1 | -6
COc1ccc(S(=O)(=O)N2CCN(c3nc4ccccc4nc3-n3nc(C)cc3C)CC2)cc1 | 1 | . | . | i | . | . | . | -3
O=C(Cn1nc(-c2ccc3c(c2)OCCO3)ccc1=O)Nc1ccc(N2CCOCC2)cc1 | 4 | . | 10 | i | . | . | . | -8
CCC(C(=O)Nc1c2c(nn1C(C)(C)C)CS(=O)(=O)C2)c1ccccc1 (stereo not given) | 2 | -24 | -7 | i | -10 | 0 | 4 | 4
CCn1cc(C(=O)NCc2ccc(OC)cc2)c(=O)c2ccc(C)nc21 | -7 | 10 | -18 | i | -6 | 1 | -1 | -15
c1ccc(COCCCn2cc(-c3ccccc3)nn2)cc1 | -6 | 3 | 15 | i | 20 | 2 | 0 | 6
CCOc1ccc(/C=N/NC(=O)c2ccc(Cn3cc([N+](=O)[O-])cn3)o2)cc1 | -5 | -23 | -6 | i | -1 | 6 | 7 | -10
Cc1cc(OC(C)C(=O)NCCCN2CCOCC2)c2c(C)cc(=O)oc2c1 (stereo not given) | 3 | -10 | -12 | i | 87 | -2 | 3 | 2
COC(=O)[C@H](C)NC(=O)Nc1cccc(C)c1 | -5 | . | -7 | i | . | 1 | 2 | -4
Cc1ccccc1-n1c(=O)cc(N2CCC3(CC2)OCCO3)[nH]c1=O | -3 | . | -3 | i | -13 | 0 | 4 | 10
CCN(CC)S(=O)(=O)c1ccc(C)c(NC(=S)NNC(=O)C2CC2)c1 | 1 | 16 | 0 | i | . | -3 | 0 | 1
CC(C)(C)[C@H]1COC(=O)CC/C=C\C[C@@H](CC(=O)N[C@H](CO)Cc2ccccc2)C(=O)N1 | . | 8 | . | . | -4 | 3 | 0 | .
CCCCC(CC)CNC(=O)/C=C/c1ccc(F)cc1 (stereo not given) | -2 | . | 10 | i | . | . | . | 1
Cc1nc2c(-c3ccccc3)c(C)nn2c(C)c1CCC(=O)O | -1 | -5 | -10 | i | -7 | 1 | 3 | -6
O=c1cc(CSc2nnc(-c3cccs3)n2Cc2ccccc2)nc2sc3ccccc3n12 | 46 | 54 | -5 | i | -10 | -4 | -17 | 17
Next section.
SMILES | eIF4H FP inh | HIV Env fusion | CSC inhib | Rce1 inh | UUG fidelity | MT1-MMP act inh | MT1-MMP act inh RFP | PABP FP inh | others
CC1CCC(NCCNC(=O)c2ccco2)CC1 (stereo not given) | 17 | 5 | -8 | i | 3 | 5 | 8 | 17
Cc1ccc(C(=O)NCCNc2ccc([N+](=O)[O-])cc2C(F)(F)F)cc1 | -2 | 15 | 23 | i | . | 3 | 3 | -11
CCOC(=O)c1ccccc1NC(=O)Cn1c(-c2nonc2N)nc2ccccc21 | 2 | -8 | 55 | i | -15 | 3 | -7 | 14
CC(=O)Nc1ccc(C(=O)N2CCCC(c3cc(C(=O)NCc4cccnc4)no3)C2)cc1 (stereo not given) | . | -29 | . | . | 0 | -2 | 4 | .
Cc1cccc(N(Cc2cc3cc(C)ccc3[nH]c2=O)C(=O)c2cccs2)c1 | -1 | 12 | 11 | i | . | -9 | -6 | 14
CCN(CC)S(=O)(=O)c1ccc(NC(=O)CN(c2ccc(OC)cc2OC)S(C)(=O)=O)cc1 | 7 | -24 | . | i | -23 | -1 | 1 | -7
Cc1ccccc1NS(=O)(=O)c1cccc(-c2nnc(-c3ccccc3)o2)c1 | 3 | ? | 26 | i | -12 | 2 | -6 | -4
O=C(CN1C(=O)c2ccccc2S1(=O)=O)Nc1ccc(S(=O)(=O)N2CCCCCC2)cc1 | -3 | -55 | . | i | -17 | -2 | 1 | -4
COc1ccc(S(=O)(=O)NNC(=O)Nc2ccc(F)cc2F)c(OC)c1 | -10 | -11 | -6 | i | -20 | 0 | 3 | 4
O=C(Oc1ccc2c(-c3ccccc3)cc(=O)oc2c1)C1CCCCC1 | 2 | . | 5 | i | -11 | -6 | 2 | 4
CN1C/C(=C/c2ccncc2)C(=O)/C(=C/c2ccncc2)C1 | 0 | -22 | -4 | . | -11 | -1 | 3 | 1
CCc1c(C(=O)c2ccc(Cl)cc2)oc2c(C)c3oc(=O)cc(C)c3cc12 | -4 | . | -10 | i | . | . | . | 4
COc1cc(CN2CCC(n3nccc3NC(=O)c3ccccc3OC)CC2)ccc1F | -13 | 12 | 1 | i | 17 | 0 | 1 | 11
CCCCNC(=O)CNC(=O)c1nn(-c2ccc(OC)c(OC)c2)c(=O)c2ccccc12 | . | 16 | . | . | 0 | -2 | 3 | .
O=C(Cc1cccs1)N1CCN(c2ccc(F)cc2)CC1 | 3 | . | 2 | i | -12 | -1 | 1 | -3
CC(C)CCNC(=O)c1cc2c(=O)n3ccccc3nc2s1 | 5 | -26 | -4 | i | -13 | 1 | 0 | 5
CC1CCN(CCC(=O)Nc2ccc(Br)cc2)CC1 | . | 30 | -13 | i | -8 | 6 | 6 | .
Oc1ccccc1-c1cc(-c2ccc(Cl)cc2)n[nH]1 | -1 | -290 | . | i | -45 | 2 | -3 | 9
COc1ccc(CCC(=O)Nc2ccccc2C(F)(F)F)cc1 | 80* | 5 | -13 | i | 1 | -8 | -1 | 18* | eIF4H FP inh retest=105*;PABP FP inh retest=79*
O=C(NCc1ccco1)c1cc(-c2cccnc2)nc2ccc(Cl)cc12 | -9 | . | 11 | i | -1 | 0 | -1 | -2
CC1C(=O)C(C)C(c2ccc([N+](=O)[O-])cc2)NC1c1ccc([N+](=O)[O-])cc1 (stereo not given) | 1 | 21 | 56 | i | . | -6 | -8 | -5
CC(=O)Cc1nsc(NC(=O)c2ccc(F)cc2)n1 | -5 | -13 | 7 | i | . | 0 | -2 | 8

Pulled one by one from above:
SMILES | eIF4H FP inh | HIV Env fusion | CSC inhib | Rce1 inh | UUG fidelity | MT1-MMP act inh | MT1-MMP act inh RFP | PABP FP inh | others
CCOC(=O)c1ccccc1NC(=O)Cn1c(-c2nonc2N)nc2ccccc21 | 2 | -8 | 55 | i | -15 | 3 | -7 | 14
COc1cc(CN2CCC(n3nccc3NC(=O)c3ccccc3OC)CC2)ccc1F | -13 | 12 | 1 | i | 17 | 0 | 1 | 11

Bioassay records from PubChem BioAssay.

An excerpt; count on the stated rates, not on these rows.
